RecA intein inh = blocks M. tuberculosis RecA intein splicing. P9WHJ3. cell-free RecA intein splicing, fluorescence. inhibition, %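 (about 9 µM by stock and volumes)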. hit rate 0.75% among 290,000. AID 2221; in the data active means inhibition above about 30%; inconclusive means no clear call, values can overlap the other calls;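 further: 0% = vehicle wells and 100% = reference inhibitor control wells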
Target sequence (P9WHJ3 whole entry, looked up): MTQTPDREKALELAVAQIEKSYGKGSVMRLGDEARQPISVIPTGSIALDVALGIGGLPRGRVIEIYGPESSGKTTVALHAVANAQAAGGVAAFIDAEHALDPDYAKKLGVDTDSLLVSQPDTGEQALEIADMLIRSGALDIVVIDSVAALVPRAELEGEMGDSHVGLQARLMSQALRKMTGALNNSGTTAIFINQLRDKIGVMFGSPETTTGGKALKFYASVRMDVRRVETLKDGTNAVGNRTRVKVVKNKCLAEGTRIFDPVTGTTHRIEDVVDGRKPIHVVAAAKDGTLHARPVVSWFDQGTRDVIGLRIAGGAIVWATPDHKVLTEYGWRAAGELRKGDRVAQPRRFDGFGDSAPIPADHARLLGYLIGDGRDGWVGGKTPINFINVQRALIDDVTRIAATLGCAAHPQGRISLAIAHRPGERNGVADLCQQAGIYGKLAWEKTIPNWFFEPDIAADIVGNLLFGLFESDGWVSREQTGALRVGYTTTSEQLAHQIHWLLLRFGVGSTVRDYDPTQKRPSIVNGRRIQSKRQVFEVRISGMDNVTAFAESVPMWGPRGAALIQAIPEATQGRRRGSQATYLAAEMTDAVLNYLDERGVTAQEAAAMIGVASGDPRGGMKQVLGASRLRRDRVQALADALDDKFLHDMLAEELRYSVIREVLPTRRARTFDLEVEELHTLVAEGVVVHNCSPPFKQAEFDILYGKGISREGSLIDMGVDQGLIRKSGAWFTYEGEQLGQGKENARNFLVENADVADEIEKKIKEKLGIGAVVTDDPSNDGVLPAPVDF
Arbovirus inh = arbovirus infection inhibition; arbovirus infection cell-based antiviral screen; hit rate 0.37% among 200,000; AID 1251; inhibition, % at 10 µM;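 active means inhibition from about 30%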;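 further: bluetongue infection of BSR cells; cell survival read as ATP light after 72 h; 0% = infected wells without compound and 100% = uninfected wells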
YopH inh = inhibitors of Yersinia enterocolitica YopH tyrosine phosphatase; AID 898; fluorescence Ex485/Em525; inhibition, %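 (about 10 µM by stock and volumes)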; hit rate 0.16% among 140,000;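 active means inhibition of 50% or more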;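 further: controls were vehicle for no effect and minimum signal wells for full effect; inactives centre near -20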
Mtb growth = M. tuberculosis H37Rv growth inhibitors, H37Rv strain (AID 1626); M. tuberculosis H37Rv growth inhibition; higher % means a stronger effect; one-dose inhibition, % at 10 µM; IC50 in µM for titrated hits; hit rate 0.95% among 220,000;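 active means confirmed in a dose series; inconclusive means inhibition above 80% but not taken into the dose series; inactive means below 80% or under 30% at every dose of the series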;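 further: bacteria incubated seven days before Alamar blue readout; 0% = bacteria only wells and 100% = bacteria with antibiotic wells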
Mtb betalactam = beta-lactam sensitization of Mtb H37Rv | inhibition, % at 25 µM | AID 434955 | hit rate 0.27% among 330,000 | M. tuberculosis H37Rv growth with meropenem, percent inhibition; hits of this screen are not shown here;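 active means about 74% or more and at least 40 points above the plate without the antibiotic, then above 30% in a dose series; inconclusive means first-round hits that could not be retested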;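 further: growth measured after seven days incubation then overnight dye step; 0% = bacteria only wells and 100% = bacteria with antibiotic; twin plates without the antibiotic show which effects depend on it; some results filed as inactive read as strong as hits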
Arbovirus inh repeat = also measured in Arbovirus inh; calls as there; inhibition, %; measured here: 10K subset replicate screen; many hits read low in the repeat;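 first of two repeat runs on a subset; 0% = infected and 100% = uninfected wells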
An asterisk follows results filed as active; ? = inconclusive; . = not tested or not shown.

SMILES | RecA intein inh | Arbovirus inh | YopH inh | Mtb growth | Mtb betalactam | others
O=C(NNC(=S)Nc1ccccc1)C1CCCCC1 | 0.8 | -1 | . | -6% | -2
COc1ccc(OC)c(/C=C2\SC(N3CCCC(C)C3)=NC2=O)c1 (stereo not given) | -1.7 | . | . | . | -1
Cc1cc(NC(=O)CCC(=O)N(CC(=O)NCC2CCCO2)Cc2ccc(F)cc2)no1 (stereo not given) | 3.7 | 3 | -35 | 0% | -3
CCC(=Nc1ccccc1OC)C1=C(O)CC(c2ccccc2)CC1=O (stereo not given) | 0.0 | -10 | . | 6% | 0
COc1ccc(-c2nc3c(-c4ccc(Cl)cc4)cnn3cc2C)cc1F | -3.5 | -6 | . | -2% | 2
CNC(=O)CN(c1cc([N+](=O)[O-])ccc1OC)S(C)(=O)=O | 1.0 | 5 | -19 | 4% | 1
COc1ccc(NC(=O)Nc2cccc3cccnc23)cc1 | 3.3 | -3 | -34 | -9% | 13 | Arbovirus inh repeat=-2
CCOC(=O)C(C)(CC)NC(=O)CSP(=S)(OCC)OCC (stereo not given) | 0.7 | 0 | -18 | -1% | -7
O=C(c1ccc(F)cc1)N(Cc1cccs1)C1CCS(=O)(=O)C1 (stereo not given) | -0.3 | . | . | . | 2
CC(C)c1ccc(/C=N/n2c(COc3ccccc3)n[nH]c2=S)cc1 | 7.8 | . | . | . | ?
CCOc1c(Cl)cc(/C=C/C(=O)N(CC)CC(=O)Nc2ccc(NC(C)=O)cc2)cc1OC | 0.0 | . | . | . | 0
CC1CCCC(C)N1C(=O)C1CCCCC1 (stereo not given) | -3.3 | 3 | -24 | -12% | 3
C=C(Cl)COC(=O)[C@H]1C2C=CC(C2)C1C(=O)O (stereo not given in full) | -1.0 | 2 | -8 | -2% | -10
O=C(C1CC1)N1CCc2cc(S(=O)(=O)N3CCN(c4ccccc4)CC3)ccc21 | -3.1 | . | . | . | 2
CCOC(=O)N1CCC(N2Cc3cccc(C(=O)Nc4ccc(CC)cc4)c3C2=O)CC1 | 0.1 | -6 | 10 | 10% | 42
O=C1C2C3C=CC(C3)C2C(=O)N1c1ccc(Cc2ccncc2)cc1 (stereo not given) | 1.7 | 3 | -4 | -7% | -7
CCC(C)NC(=O)Cn1nc(C(F)(F)F)c2c1CCC2 (stereo not given) | 0.9 | -1 | . | -4% | -4
S=C(Nc1ccccc1)Nc1cc(Cl)ccc1Oc1ccccc1 | 7.1 | 0 | -24 | -5% | -2
Cc1ccc(C(C(=O)NC(C)(C)C)N(CC2CCCO2)C(=O)c2csnn2)cc1 (stereo not given) | -3.9 | . | . | . | -3
CCC(=O)Nc1ccc(C(=O)NNC(=O)C(c2ccccc2)c2ccccc2)cc1 | -4.8 | -1 | -14 | -5% | -2
O=C(Cc1ccccc1)N1CCCC(c2nc(-c3cccs3)no2)C1 (stereo not given) | 0.3 | -1 | 3 | 0% | -12
NC(=O)CC(NC(=O)c1ccccc1)c1ccc(NCCc2ccc(F)cc2)c([N+](=O)[O-])c1 (stereo not given) | -2.3 | . | . | -15% | -5
O=C1c2ccccc2NC(c2cccc(F)c2)N1Cc1ccco1 (stereo not given) | -1.6 | 0 | -35 | 4% | 1
CCc1nn(CC(=O)NCCCN(CC)Cc2ccccc2)c(=O)c2cc3sccc3n12 | 1.6 | -7 | -36 | -10% | 8
COc1cccc2sc3ccc(NCCC4CCCN4C)cc3c(=O)c12 (stereo not given) | -15 | . | . | . | -9
CC/C(=N/Nc1ccccc1Cl)c1cnnc(-c2ccccc2)n1 | 7.0 | -7 | 6 | -6% | -3
O=C(c1ccc(-c2cccc(C(F)(F)F)c2)o1)N1CCCC(C(F)(F)F)C1 (stereo not given) | 7.5 | . | . | . | 6
CCOc1ccccc1NC(=O)c1ccc2c(=O)n3c(nc2c1)CCCCC3 | 1.7 | . | . | . | 61
Cc1cc(C)nc(NC(=O)c2c(-c3ccccc3Cl)noc2C)c1 | 3.3 | -9 | -29 | 15% | 15
Cn1cc([N+](=O)[O-])c(C(=O)Nc2ccc3c(C(F)(F)F)cc(=O)oc3c2)n1 | -8.8 | . | . | . | -16
COc1ccc(NC(=S)NCCSc2ccc(Cl)cc2)c(OC)c1 | 13 | -5 | -35 | -5% | -8
Cc1cccc(NC(=O)NNC(=O)c2ccc3ccccc3c2O)c1 | -2.6 | . | . | . | 7
CCn1c2ccccc2c2nnc(SCC(=O)NC(CC(C)C)C(=O)OC)nc21 (stereo not given) | 1.5 | 3 | 1 | -2% | -4
Cc1nc2nc(-c3ccco3)[nH]n2c(=O)c1C | -1.1 | -1 | -25 | -6% | 1
C/C(=N\NC(=O)CC1N=C(Cc2ccccc2)NNC1=O)c1ccc(Cl)cc1Cl (stereo not given) | 2.4 | -17 | 12 | 10% | -5
O=C(CSc1nc2ccccc2[nH]1)N=Nc1c(O)[nH]c2ccccc12 | 2.2 | -18 | -38 | -1% | -4
C/C(=N\NC(=O)c1ccc(NS(=O)(=O)c2cccs2)cc1)c1ccc(Cl)cc1 | -2.3 | -26 | 4 | 10% | 3
COCCN(C(=O)COC(=O)CCc1nc2ccccc2s1)c1c(N)n(Cc2ccccc2)c(=O)[nH]c1=O | -2.0 | . | . | . | -18
O=C(COc1ncnc2sccc12)N1CCc2ccccc2C1 | -0.9 | 0 | -5 | -2% | ?
COC(=O)Nc1ncc(CN2CCc3ccccc3C2)s1 | 0.7 | -1 | -34 | 0% | -5
COc1ccc(NC(=O)CSc2nc3c([nH]c4ccccc43)c(=O)n2C)c(OC)c1 | -1.7 | . | . | . | -8
CCc1nnc(NC(=O)CSc2nc3cc4c(cc3cc2CC)OCCO4)s1 | 2.0 | -15 | -16 | 7% | 5
CCCOCc1ccc(O)c2ncccc12 | -2.2 | . | . | ? | 100
O=C(NCC(c1ccco1)N1CCc2ccccc2C1)c1ccc(Br)cc1 (stereo not given) | 13 | . | . | . | 5
COc1ccc(C(=O)Nc2cc(OC)c(Cl)cc2OC)cc1 | 0.3 | -4 | . | 6% | -10
CCOC(=O)C(NC(=O)Nc1ccc(F)cc1)(OCC)C(F)(F)F (stereo not given) | -5.6 | 12 | -39 | 10% | -3
CCOC(=O)c1c(N)nn(C(=O)CC)c1-c1ccccc1 | 1.5 | -7 | 4 | -6% | 2
CCCOC(=O)C1C2C=CC3(CN(c4cccc(Cl)c4)C(=O)C13)O2 (stereo not given) | 0.7 | 2 | 18 | -1% | ? | Arbovirus inh repeat=10
O=C(NCC(=O)N(Cc1cccs1)C(C(=O)NC1CCCCC1)c1cccnc1)c1ccco1 (stereo not given) | -1.9 | -5 | -17 | 6% | -2
COc1ccc(OCC(=O)NC(=S)N2CCCc3ccccc32)cc1 | -0.9 | -9 | -19 | -8% | 6
CCC(Sc1nncn1C)C(=O)Nc1cc(C)on1 (stereo not given) | 1.4 | 4 | . | -3% | -5
O=C(c1ccc(Br)cc1)c1cn[nH]c1-c1ccccc1O | 2.9 | . | . | . | -8
Cc1ccc(N=C2CCCCCN2C)c(C#N)c1 | 1.3 | 4 | -13 | -9% | 2
Cc1cc2cc(C)c3nnc(SCC(=O)N4CCN(C(=O)c5ccco5)CC4)n3c2cc1C | 1.0 | . | -33 | 0% | 2
O=C(CN1CCCCCC1)Nc1ccccc1OC(F)F | -0.1 | . | . | . | 4
C=C(C)CSc1nc2ncc(Cl)cc2[nH]1 | -1.5 | 9 | -2 | 2% | -1
CN(C)C(=O)CSc1n[nH]c(=O)[nH]c1=O | 0.2 | -3 | . | -3% | 7
O=C(Nc1cccnc1Cl)C1c2ccccc2Oc2ccccc21 | -1.3 | -6 | 5 | 0% | 3
Cc1cc(C=C2C(=O)c3ccccc3C2=O)c(C)n1C | 3.1 | 4 | 23 | 11% | -2
Cc1nc(CNS(=O)(=O)c2ccccc2F)cs1 | -4.0 | -2 | -19 | 5% | -3 | Arbovirus inh repeat=0

The list goes on; it opens with the three that closed the last part.
SMILES | RecA intein inh | Arbovirus inh | YopH inh | Mtb growth | Mtb betalactam | others
O=C(Nc1cccnc1Cl)C1c2ccccc2Oc2ccccc21 | -1.3 | -6 | 5 | 0% | 3
Cc1cc(C=C2C(=O)c3ccccc3C2=O)c(C)n1C | 3.1 | 4 | 23 | 11% | -2
Cc1nc(CNS(=O)(=O)c2ccccc2F)cs1 | -4.0 | -2 | -19 | 5% | -3 | Arbovirus inh repeat=0
Cc1ccc(C(=O)Nc2cc3[nH]c(=O)oc3cc2C)cc1 | 1.5 | . | . | . | -5
CN(C)S(=O)(=O)c1ccc(Cl)c(C(=O)NC2CCCCCCC2)c1 | -0.5 | . | . | . | 2
Cc1ccc(N(CC(O)Cn2nc(C)cc2C)S(=O)(=O)c2ccc3ccccc3c2)cc1 (stereo not given) | 7.0 | -8 | -44 | 14% | 4
Cc1cc(C)nc(N/N=C/C2=C(N3CCOCC3)C(=C\c3ccc(Cl)cc3)/CC2)n1 | -18 | 2 | -27 | 6% | 98
COc1ccc(NC(=O)CCc2c(C)nc3nc(C)nn3c2C)cc1 | 2.1 | 2 | 4 | -10% | 1
CN(C)S(=O)(=O)c1cccc(C(=O)Nc2ccc3c(c2)CCC3)c1 | 2.4 | . | . | . | -4
COc1ccc(N2CC(NC(=O)N3CCc4ccccc43)CC2=O)cc1OC (stereo not given) | -1.9 | 6 | . | -2% | -4
O=S(=O)(NCCN1CCCC1)c1ccc(Cl)cc1 | -1.4 | . | . | . | 1
COC(=O)c1cc(Br)c(=O)n(-c2cccc(F)c2)c1 | -0.6 | 0 | -37 | -3% | -3
Cc1cccc(NC(=O)CN2CCSc3ccccc32)c1 | 5.1 | 5 | . | 0% | 3
CN(C1CCS(=O)(=O)C1)S(=O)(=O)c1ccc2ccccc2c1 (stereo not given) | 1.0 | . | . | . | -8
O=C1CCC(C(=O)N(CCO)Cc2ccccc2)CN1CCCN1CCOCC1 (stereo not given) | 1.6 | . | . | . | -4
Cc1ccc2c(c1)[C@@H]1CN(C)CC[C@@H]1N2S(=O)(=O)c1ccc(F)cc1 | 2.4 | 9 | 11 | -9% | -10
COCC(=O)N(Cc1cc2ccc(C)cc2[nH]c1=O)c1ccccc1C | 0.9 | . | . | . | -3
CC(=O)c1c(C)[nH]c(=S)c(C#N)c1-c1ccc(Cl)cc1 | -0.2 | . | . | 2% | 8
COc1ccccc1CN1CC(C(=O)N(C)Cc2nc(C)cs2)CCC1=O (stereo not given) | -2.7 | . | . | . | 2
CN1CCc2ccccc2C1Cc1ccccc1NC(=O)c1sc2ccccc2c1Cl (stereo not given) | -0.4 | . | . | 1% | 10
O=c1ccn(-c2cccc(C(F)(F)F)c2)nc1-c1ccn(-c2cccc(Cl)c2)n1 | 0.0 | 2 | -31 | -4% | 16
CCOC(=O)N1CCN(c2c(NCCCN3CCCC(C)C3)c(=O)c2=O)CC1 (stereo not given) | 1.4 | -3 | -29 | 4% | 2
Oc1cccc2cnccc12 | -7.7 | . | . | -11% | -1

Looked up by structure from the list above:
SMILES | RecA intein inh | Arbovirus inh | YopH inh | Mtb growth | Mtb betalactam | others
COc1ccccc1CN1CC(C(=O)N(C)Cc2nc(C)cs2)CCC1=O (stereo not given) | -2.7 | . | . | . | 2
Cc1ccc2c(c1)[C@@H]1CN(C)CC[C@@H]1N2S(=O)(=O)c1ccc(F)cc1 | 2.4 | 9 | 11 | -9% | -10
CN(C1CCS(=O)(=O)C1)S(=O)(=O)c1ccc2ccccc2c1 (stereo not given) | 1.0 | . | . | . | -8
CN(C)S(=O)(=O)c1cccc(C(=O)Nc2ccc3c(c2)CCC3)c1 | 2.4 | . | . | . | -4
CC(=O)c1c(C)[nH]c(=S)c(C#N)c1-c1ccc(Cl)cc1 | -0.2 | . | . | 2% | 8
COc1ccc(N2CC(NC(=O)N3CCc4ccccc43)CC2=O)cc1OC (stereo not given) | -1.9 | 6 | . | -2% | -4

Going on with the list:
SMILES | RecA intein inh | Arbovirus inh | YopH inh | Mtb growth | Mtb betalactam | others
CCOC(=O)c1sc(Nc2cccc(C)c2C)nc1C | 1.9 | -5 | -7 | . | -4
COC(=O)c1cccc(C(=O)N2CCCC(Nc3ccc(C)c(C)c3)C2)c1 (stereo not given) | -3.3 | . | . | . | 3
Nc1cccnc1S(=O)(=O)c1cccc(C(F)(F)F)c1 | 1.5 | . | . | . | -3
COc1n[nH]c(C(=O)NCc2ccccc2)c1[N+](=O)[O-] | -0.5 | 25 | . | -7% | 2
CC(C)(C)NS(=O)(=O)c1ccc(Oc2ncc(C(F)(F)F)cc2Cl)cc1 | 5.8 | 5 | -29 | -4% | 7
O=[N+]([O-])c1ccc2c(c1)nc1n2CCN(c2ccccc2)C1 | 26 | . | . | 1% | -5
CCn1cc(C(=O)N2CCCCC2)c(=O)c2cc(S(=O)(=O)N3CCC(C)CC3)ccc21 | -3.6 | 3 | -24 | -6% | 18

Source: PubChem BioAssay

A portion of the library; rates above refer to the full screens.
